# D2 ag: human D2 receptor agonism in beta-arrestin assay; DiscoveRx PathHunter D2 beta-arrestin, luminescence, 90 min; 100% = 57 uM dopamine signal; activation, % (test concentration not listed); 0.084% of 360,000 active; in the data active = activation above about 40%; inconclusive = about 15% to 40%; inactive = below about 15%; further: compound concentration not given in the record; the text of the record calls up to 30% inactive
# Target sequence (P14416 whole entry, looked up): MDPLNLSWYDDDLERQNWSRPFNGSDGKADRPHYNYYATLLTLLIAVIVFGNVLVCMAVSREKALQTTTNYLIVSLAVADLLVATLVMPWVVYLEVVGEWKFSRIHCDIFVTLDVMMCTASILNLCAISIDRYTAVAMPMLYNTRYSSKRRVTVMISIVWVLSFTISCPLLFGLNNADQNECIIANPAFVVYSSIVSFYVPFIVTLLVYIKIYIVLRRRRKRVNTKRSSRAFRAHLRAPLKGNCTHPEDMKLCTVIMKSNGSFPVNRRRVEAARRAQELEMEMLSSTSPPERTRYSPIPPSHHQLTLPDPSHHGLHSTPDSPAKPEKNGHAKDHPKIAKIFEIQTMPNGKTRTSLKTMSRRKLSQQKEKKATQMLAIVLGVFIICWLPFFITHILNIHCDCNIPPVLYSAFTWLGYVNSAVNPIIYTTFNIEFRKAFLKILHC
#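 DiscoveRx PathHunter D2 beta-arrestin cells (2,100/well) attached overnight, then compound-stimulated 90 min at 37 C in HBSS/10 mM HEPES/0.1% Tween-20 buffer; beta-galactosidase complementation read by luminescence after 1 h at ambient temperature. Dopamine 57 uM final (EC100) as control.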
# PINK1 modulator: modulators of PINK1 expression. PINK1 immunofluorescence, high-content cytometry, 24 h. Potency, µM (doses to about 76.6 µM), for inactives: at the top dose activation (PINK1 increase), most hits filed as activators. AID 624263. 0.2% of 410,000 active; active = well fitted activation curve with a large enough effect; inconclusive = small, poorly fitted or top-dose-only effect; inactive = flat fitted curve, though single readings scatter; cell line not stated here;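 further: potency means the concentration at half of the fitted maximal effect; % of control where 0% means no effect; nearly all actives have a fitted effect of over 65% in size; a mitochondrial uncoupler was the plate control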
#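 Fluorescence from anti-PINK1 antibody, together with nuclear and cell stains, was scanned on a laser-scanning cytometer. Before staining, stable-line cells were incubated 24 hours with compounds at 5 concentrations; primary antibody 12 h at 10 degrees C.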
# TRPML1 agonist: human mucolipin-1 channel agonism; TRPML1-expressing cells, Ca2+ dye fluorescence, FDSS; host cell line not named in the record; reference of the full effect not given here; activation, % (concentration not given with the values); 0.12% of 410,000 active; in the data active = activation above about 50%; inconclusive = about 30% to 50%; inactive = below about 30%; further: 0% is about no effect; the text of the record puts the active cut at 80%
# Target sequence (Q9GZU1 whole entry, looked up): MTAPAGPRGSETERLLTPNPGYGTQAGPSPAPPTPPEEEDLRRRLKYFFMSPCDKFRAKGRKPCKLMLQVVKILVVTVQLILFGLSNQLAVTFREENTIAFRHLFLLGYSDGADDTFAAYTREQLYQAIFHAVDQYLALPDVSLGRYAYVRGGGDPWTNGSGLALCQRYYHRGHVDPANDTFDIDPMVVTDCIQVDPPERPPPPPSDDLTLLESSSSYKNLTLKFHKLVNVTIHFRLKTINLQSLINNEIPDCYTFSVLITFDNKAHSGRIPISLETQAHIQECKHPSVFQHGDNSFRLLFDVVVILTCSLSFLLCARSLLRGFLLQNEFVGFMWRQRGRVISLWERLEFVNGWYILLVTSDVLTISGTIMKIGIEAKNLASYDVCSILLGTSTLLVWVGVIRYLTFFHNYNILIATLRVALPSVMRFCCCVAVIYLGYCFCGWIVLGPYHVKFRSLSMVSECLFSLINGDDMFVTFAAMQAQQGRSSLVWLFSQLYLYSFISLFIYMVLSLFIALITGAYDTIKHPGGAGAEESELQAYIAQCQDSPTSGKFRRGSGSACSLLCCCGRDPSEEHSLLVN
#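 TRPML1-DL cells, Tet-induced overnight (~16 h, 37 degrees C), loaded 45-90 min at room temperature with Ca8 no-wash calcium dye plus quencher. FDSS fluorescence: 10 s baseline, compound pin-transfer, 110 s agonist read, then EC80 54-4 (4uM final) and 110 s antagonist read.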
# TRPML1 blocker: human mucolipin-1 channel inhibition; TRPML1-inducible cells, Ca2+ dye fluorescence, FDSS; hits give low values; inhibition of EC80 agonist-evoked calcium signal; activity change, negative = inhibition, % (test concentration not listed); 0.02% of 390,000 active; AID 624415; in the data active means activity change below about -50%; inconclusive means about -30% to -50%; inactive means above about -30%;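 further: stimulus is agonist 54-4 at its EC80 concentration; on the % scale 0 is the no-effect control and ±100 the full control effect; compound concentration not given in the record; the text of the record puts the active cut at -80%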
#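 TRPML1-DL cells, Tet-induced overnight (~16 h, 37 °C) at 1,500 cells/well, were loaded with Ca8 no-wash dye plus quencher for 45-90 min at room temperature. Compounds were pinned during FDSS kinetic reading; agonist 54-4 at EC80 (4 uM final) then added.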
# CtBP-E1A inh: blocks the CtBP interaction with E1A; AlphaScreen GST-E1A/His-CtBP binding, 1536-well; hits give low values; control for the full effect not named in the record; activity change, % (concentration not given with the values); 0.49% of 340,000 active; in the data active means activity change below about -65%; inconclusive means about -30% to -65%; inactive means above about -30%; further: on the % scale 0 is the no-effect control and ±100 the full control effect
#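 Steps: dispense buffer (Tris pH 8.0, NaCl 300 mM, TCEP 1 mM, BSA, Tween 20); add 5X protein mix (GST-E1A, His-CtBP, 125 nM each); pin 23 nL compound; 2 h at 37 °C, dark; add 5X beads (50 ug/mL); 1 h; read.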
# Six1-Eya2 blk: Six1/Eya2 interaction inhibition | activity change, % (test concentration not listed) | 0.56% of 360,000 active | AlphaScreen GST-Six1/His-Eya2 binding, biochemical; hits give low values; control for the full effect not named in the record | AID 651725; in the data active = activity change below about -65%; inconclusive = about -30% to -65%; inactive = above about -30%; further: on the % scale 0 is the no-effect control and ±100 the full control effect; compound concentration not given in the record
#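 AlphaScreen luminescence read after one hour at 37 °C in darkness. Pin-transferred compounds met GST-Six1 and His-Eya2 protein (5X stock 250 nM/500 nM) plus glutathione donor and Ni-chelate acceptor beads (5X, 50 ug/mL).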
# * hit, by the source's call; ? = inconclusive; . = not tested or not shown; [ ] = dose if it differs, or a comment.
# The line under a structure holds: D2 ag	PINK1 modulator	TRPML1 agonist	TRPML1 blocker	CtBP-E1A inh	Six1-Eya2 blk
- O=C(Cn1cnc([N+](=O)[O-])n1)NC1CC1
 : -0.8	0.1%	0.4	-5	7	-3
- CCNC(=O)COC(=O)c1cc(-c2ccco2)nc2ccccc12
 : -3.2	-0.6%	2.3	-1	.	0
- O=C(NCc1ccc(Cl)cc1)c1ccc2c(=O)n(CC3CCCO3)c(=S)[nH]c2c1 (stereo not given)
 : -6.1	7.6%	-1.2	37	-4	-11
- CCOC(=O)c1sc(=S)n(-c2ccccc2)c1N
 : -1.2	-1.0%	-0.1	13	-13	-5
- CC1=NN(c2ccccc2)C(=O)C1/C=C1\NC(=S)NC1=O (stereo not given)
 : -3.3	1.8%	1.2	20	-1	-23
- COc1ccc(NC(=O)[C@@H]2O[C@H](CO)[C@H](O)[C@H](O)[C@H]2O)cc1F
 : -3.3	1.8%	0.0	2	5	13
- COc1ccc(NC(=O)CN(C)C(=O)c2cccc(S(=O)(=O)N3CCN(c4ccccc4)CC3)c2)cc1
 : 0.2	-1.0%	-0.3	8	-16	-17
- O=S1(=O)C[C@@H](N2CCN(c3ccccn3)CC2)[C@H](COCc2ccccc2)N1
 : -10	1.5%	-0.6	-12	4	4
- COc1ccc(/C=N/n2cnnc2)cc1Cn1nc(C)c([N+](=O)[O-])c1C
 : -1.2	-1.6%	0.3	14	.	-9
- CC(=O)NCCC(=O)Nc1cc(S(=O)(=O)N2CCOCC2)ccc1N1CCOCC1
 : 0.6	-0.7%	-0.9	2	-9	-2
- COC(=O)[C@@H](NC(=O)NCc1ccccc1F)C(C)C
 : -3.1	.	-0.3	-7	4	7
- CCOC(=O)CCc1c(C)c2ccc(OC(C)C(=O)OCC)c(C)c2oc1=O (stereo not given)
 : -3.8	8.7%[38.3 µM]	0.1	3	8	0
- CC(=O)Nc1ccc(NC(=O)c2csc([C@H]3C[C@H](O)[C@@H](CO)O3)n2)cc1
 : -4.6	2.2%	-0.3	.	-21	2
- Cc1ccc(-c2nnc(Nc3ccc4c(c3)OCO4)c3ccccc23)cc1S(N)(=O)=O
 : -11	-1.9%	-0.7	-3	-23	?
- C=CCn1cc(/C=C/c2cc[n+](C)cc2)c2ccccc21
 : -2.8	45µM*	19	-5	.	5
- Cc1nc(NC(=O)c2cccnc2)ccc1Br
 : 0.5	1.8%	-0.4	-4	1	11
- c1ccc2c(c1)ncn2CCN1CCCCC1
 : -3.4	-1.1%	1.1	-5	5	4
- COc1ccc(Cn2c(=O)[nH]c3cc(C(=O)NCCCOC(C)C)ccc3c2=O)cc1
 : -2.0	15%	-0.5	-9	-4	0
- O=C(NCC1CCCCC1)c1cccc(-c2ccc(O)cc2)c1
 : 1.5	?	0.0	12	11	1
- Cc1cc(C)cc(NC(=O)C(C)N2C(=O)c3ccccc3C2=O)c1 (stereo not given)
 : -1.7	-0.4%	-1.0	1	4	-14

# Part of the list above in order of number of heavy atoms, lowest first.
# The line under a structure holds: D2 ag	PINK1 modulator	TRPML1 agonist	TRPML1 blocker	CtBP-E1A inh	Six1-Eya2 blk
- CCOC(=O)c1sc(=S)n(-c2ccccc2)c1N
 : -1.2	-1.0%	-0.1	13	-13	-5
- COc1ccc(NC(=O)[C@@H]2O[C@H](CO)[C@H](O)[C@H](O)[C@H]2O)cc1F
 : -3.3	1.8%	0.0	2	5	13
- CCOC(=O)CCc1c(C)c2ccc(OC(C)C(=O)OCC)c(C)c2oc1=O (stereo not given)
 : -3.8	8.7%[38.3 µM]	0.1	3	8	0

# Continued:
# The line under a structure holds: D2 ag	PINK1 modulator	TRPML1 agonist	TRPML1 blocker	CtBP-E1A inh	Six1-Eya2 blk
- Cc1ccccc1S(=O)(=O)N1[C@@H](c2ccccc2)C(C(=O)O)=CC[C@H]1c1ccc(Cl)cc1
 : -4.5	-0.2%	-0.5	11	.	-5
- CCOC(=O)Cc1csc(NC(=O)c2ccc([N+](=O)[O-])cc2[N+](=O)[O-])n1
 : ?	-0.7%	-0.7	-6	-2	9
- Cc1cc(C)n(CCCNC(=O)C2CCC(=O)N(CCc3ccc(Cl)cc3)C2)n1 (stereo not given)
 : -1.6	-0.5%	-0.3	-6	7	6
- COc1cc(C=O)ccc1Oc1ccc(S(=O)(=O)N2CCOCC2)cc1[N+](=O)[O-]
 : -1.8	0.4%	-0.2	13	-1	-8
- Cc1ccccc1CSCC(=O)N1CCN(c2ccccc2)CC1
 : 1.5	-0.6%	2.4	17	-3	-5
- COC(=O)Cc1ccc(NC(=S)N2CCN(c3cccc(O)c3)CC2)cc1
 : 14	0.6%	0.6	12	13	4
- CCCCn1cc(S(=O)(=O)c2ccc(C)c(C)c2)c(=O)c2cc(F)c(N3CCCC(C)C3)cc21 (stereo not given)
 : .	-1.4%	-0.8	-6	.	.
- CCc1ccccc1NC(=O)[C@@H]1CCC(=O)N1C1OC(=O)c2c1ccc(OC)c2OC (stereo not given in full)
 : -4.2	0.8%	-0.2	4	17	23
- Cc1ccc(SCCSc2ncccn2)cc1
 : -4.3	1.9%	-0.4	-6	58	69
- CC(C)c1ccc(CNc2nnnn2C)cc1
 : 6.4	1.2%	0.6	0	.	16
- Cc1cccc(NC(=O)NC(=O)c2ccccc2)n1
 : 2.5	0.1%	-0.5	-1	4	-8
- CC(Cc1ccccn1)NC(=O)c1ccc(OC2CCN(CCc3ccccc3)CC2)cc1 (stereo not given)
 : -2.7	0.2%	0.2	4	2	-10
- COc1ccc(N2C(=NC(=O)C3CCCCC3)SC3CS(=O)(=O)CC32)c(OC)c1 (stereo not given)
 : -2.7	-0.1%	1.0	43	3	3
- Cc1ccc(NC(=O)c2cnn(C)c2)cc1[N+](=O)[O-]
 : -2.6	1.2%	-0.3	-17	5	8
- COc1ccc(S(=O)(=O)Nc2ccc3ccccc3c2)cc1C
 : 2.9	13%[38.3 µM]	2.7	-4	3	-1
- O=C(c1cncc(Br)c1)N1CCc2ccccc2C1
 : 1.7	-2.1%	1.3	11	7	1
- Cc1ccc(Cl)c(OCC(=O)OCC(=O)c2ccc[nH]2)c1
 : -1.5	1.7%	6.6	9	1	-2
- COc1ccc(N(Cc2cc3cccc(C)c3[nH]c2=O)C(=O)C2CCCO2)cc1 (stereo not given)
 : -1.8	1.4%	-0.4	8	1	0
- CCc1ccc(OCc2cnc(Cl)s2)cc1
 : -6.8	3.9%	2.1	14	28	40
- CC(C)[C@H](NC(=O)C1CCN(C(=O)[C@H](Cc2ccccc2)NC(=O)OC(C)(C)C)CC1)C(=O)O
 : -4.4	-1.3%	-0.9	-4	10	3
- COc1ccc(-c2ccc(SCC(=O)c3ccc(F)cc3)nn2)cc1OC
 : 3.8	1.9%	2.5	60	-18	?
- COc1cccc(CCC2C(=O)CCCC2=O)c1
 : 1.8	2.6%	-0.3	-7	0	-9
- Cc1ccc(S(=O)(=O)N2CCN(C)CC2)c2nsnc12
 : 2.9	2.3%	-0.3	26	6	3
- Cn1c2nc(=O)[nH]c(=O)c-2cc2ccccc21
 : -3.5	1.8%	0.3	7	-6	-11
- Cn1c(Cc2ccccc2)nnc1SCc1nc2ccccc2c(=O)[nH]1
 : -0.3	1.7%	1.9	-12	-1	0
- COc1ccc(NC(=O)CSCC(=O)N(C)Cc2cccc(OC)c2OC)cc1
 : -3.7	1.1%	-0.1	-13	13	-1
- O=C(Nc1ccccc1F)C1CCN(S(=O)(=O)c2cccc3nonc23)CC1
 : -4.0	-0.7%	-0.4	-21	-1	-10
- O=C(c1ccco1)N1CCN(C(=O)c2cc3ccccc3oc2=O)CC1
 : -2.0	4.7%	0.6	0	7	4
- CC(CCc1ccccc1)NC(=O)c1ccc(NC(=O)c2ccc(Cl)cc2Cl)cc1 (stereo not given)
 : 1.9	10%	-0.2	-18	17	3
- Oc1c(C(c2ccccn2)N2CCOCC2)ccc2cccnc12 (stereo not given)
 : -0.9	1.6%[38.3 µM]	-0.5	-10	-81*	-92*
- CSCc1cc(N2CCOCC2)nc(SCc2ccc(Cl)c(Cl)c2)n1
 : -0.4	5.6%[38.3 µM]	1.6	14	-2	-4
- COc1cccc2c(=O)ccoc12
 : -2.6	0.9%	-0.7	37	-3	6
- COCCNC(=O)c1ccccc1N(Cc1ccccc1)S(=O)(=O)c1ccccc1
 : -4.3	1.4%	2.9	-23	-6	5
- Cc1ccc2cc(/C=N/NC(=O)c3ccc(F)cc3)c(Cl)nc2c1
 : -3.5	5.4%	30	-17	3	0
- Cc1cc(=O)oc2cc(OCC(=O)OCC(=O)Nc3ccccc3C(C)C)ccc12
 : -8.0	1.6%	-1.4	-7	-1	8
- COc1ccc(C(C#N)=Cc2ccc(N(C)CCC#N)cc2)cc1
 : -5.4	1.6%	0.8	68	-5	0
- N#CCC(=O)N/N=C/c1ccc(OCC(=O)Nc2ccc(F)cc2)cc1
 : 1.0	3.9%	0.3	2	.	-8
- O=C(CNC(=O)c1cccc(F)c1)OCc1cc(=O)n2cc(Br)ccc2n1
 : -2.0	-0.7%	-0.6	6	-7	1
- CCOC(=O)N1CCN(C(=O)COc2ccc3c(c2)C(=O)CC2(CCN(C(C)=O)CC2)O3)CC1
 : -1.4	-2.4%[38.3 µM]	0.1	9	-7	-1
- O=C(Nc1sc2c(c1C(=O)NCC(O)CO)CCCC2)c1ccccc1 (stereo not given)
 : 0.4	0.8%	-0.2	-16	7	11
- COCCN(C(=O)C(=O)NC1CCCC1)C(C(=O)NC1CCCC1)c1ccccc1F (stereo not given)
 : -3.8	-1.8%	0.2	-4	.	0
- O=C(Nc1ccc(Oc2c(F)c(F)c(F)c(F)c2F)cc1)OC1CCN2Cc3ccccc3N=C12 (stereo not given)
 : -2.3	-1.4%	-0.4	-5	0	17
- Cc1ccc2c(c1)sc(C)[n+]2CCCS(=O)(=O)[O-]
 : -4.3	-1.5%	0.8	-4	-1	1
- OCCCn1c(-c2ccccc2)n[nH]c1=S
 : -3.3	-1.7%	-0.7	-13	6	7
- CCc1ccc(CNC(=O)C(CC)n2nc(C)c3c(C)n(-c4ccccc4)nc3c2=O)cc1 (stereo not given)
 : .	0.7%	2.1	1	.	.
- Cc1nc(SCC(=O)Nc2nc3ccccc3s2)c(C#N)c(C)c1C
 : -0.6	12%	0.9	4	9	3
- O=C(COC(=O)CCOc1ccccc1)NCCc1ccccc1
 : -4.0	4.1%	0.1	-9	3	2
- CC1(C(=O)NS(=O)(=O)c2ccccc2Cl)CCN1C(=O)c1ccco1 (stereo not given)
 : -4.4	1.1%	-0.3	.	1	12
- Cc1cc(C)cc(OCC(=O)NCc2nc(-c3ccccc3)no2)c1
 : 1.1	-5.3%[38.3 µM]	1.7	12	30	1
- CC1CCCCC1NC(=O)CN1C(=O)c2cccc(N)c2C1=O (stereo not given)
 : 0.1	0.3%	4.1	12	5	2
- CCOC(=O)c1nn(-c2ccccc2)c(=O)cc1SC1CCCCC1
 : -3.6	0.1%	-0.4	-3	-13	25
- Cc1ccccc1CC1(CO)CCCN(Cc2cn[nH]c2-c2ccccc2)C1 (stereo not given)
 : -4.6	2.1%	-0.4	-16	0	2
- CC(=O)NC1C(=O)N(CCc2ccccc2)c2ccc(Br)cc21 (stereo not given)
 : -6.9	2.9%	0.0	12	-7	-13
